gsp agonist – agonists of gsp mutant (McCune-Albright syndrome). gsp mutant cells, cAMP HTRF, 30 min; control for the full effect not named in the record. Potency, µM (series often up to 76.9 µM), without a hit: top-dose activation (cAMP increase), most hits filed as activators. actives 0.13% (n = 340,000); active = well fitted activation curve with a large enough effect; inconclusive = small, poorly fitted or top-dose-only effect, or another doubt; inactive = no such curve, though single readings can be large or run the other way; cell line not stated here;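 also: phosphodiesterase inhibitor Ro 20-1724 added with compounds to block cAMP breakdown; potency is read from the fitted curve at half-maximal effect; nearly all actives have a fitted effect of over 60% in size; about a fifth of the inactives were tested at one dose only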
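Cells in DMEM/10% FBS with G418 were pretreated with compounds in DMSO plus […] (300 uM stock) for 30 min at 37C. cAMP was measured by HTRF (cAMP-d2 plus anti-cAMP antibody-K) after 30 min at room temperature.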
gsp antag – gsp mutant antagonism; actives 0.4% (n = 340,000); gsp-mutant cells, cAMP HTRF, 30 min; control for the full effect not named in the record; AID 624288; Potency, µM (titrated, usually from 76.9 µM), inactives show at the highest dose activity change, negative = inhibition, hits mostly inhibitors; active = falling curve of any shape with a large fitted effect; inconclusive = falling curve, mostly with a smaller effect; inactive = flat or rising curve; cell line not stated here;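 also: intracellular cAMP measured with PDE inhibitor Ro 20-1724 present during compound exposure; potency is read from the fitted curve at half-maximal effect; % is scaled to controls: 0 for no effect and ±100 for the full control effect; nearly all actives have a fitted effect of over 65% in size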
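Cells, 2000/well, grown 16–24 h in DMEM 10% FBS with 0.5 mg/ml G418, then compounds plus […] (300 uM addition stock), 30 min at 37C. cAMP read by HTRF (cAMP-d2 and anti-cAMP antibody-K in lysis buffer) after 30 min RT.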
Sfp inh – inhibitors of Bacillus subtilis Sfp phosphopantetheinyl transferase; Q9F4F7; Biochemical Sfp PPTase activity, qHTS; Potency, µM, without a hit: max response, negative = inhibition, hits mostly inhibitors; actives 3.5% (n = 310,000); AID 1490; active = well fitted inhibition curve with a large enough effect; inconclusive = small, poorly fitted or top-dose-only effect, or another doubt; inactive = no such curve, though single readings can be large or run the other way;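 also: the enzyme is Sfp with the accession as filed and its product quenches rhodamine fluorescence; potency is read from the fitted curve at half-maximal effect; 0% = enzyme reaction without inhibitor and -100% = no enzyme wells; top concentration of the series not given in the record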
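Sfp 15 nM + cpd, 15 min RT; start w/ rhodamine-CoA 5 uM, BHQ-2-YbbR 12.5 uM (final); 50 mM Hepes pH 7.6, 10 mM MgCl2, 0.01% NP-40, 0.01% BSA; read 525/598 nm at 0 and 30 min.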
Menin MLL FP FL – displaces fluorescein MLL peptide from human menin; Fluorescence polarization, fluorescein-MLL peptide displacement from menin; FP activity change, % at 61.4 µM; 290,000 tested, under 10 active; AID 1766; inconclusive = falling polarisation curve, or a change in total fluorescence; inactive = total fluorescence flat and polarisation flat or rising; no compound was filed as active; the % refers to the polarisation; negative = inhibition;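 also: % of control where 0% means no effect; inhibitors lower the polarisation; unlabelled MLL peptide was the positive control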
D2 potentiator – human D2 receptor positive allosteric modulation; actives 0.23% (n = 360,000); P14416; DiscoveRx D2 beta-arrestin cells, luminescence, 90 min; 100% = 57 uM dopamine signal; potentiation, % (concentration not given with the values); active = potentiation of 50% or more; inconclusive = 30% to 50%; inactive = 30% or less;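 also: compound concentration not given in the record; tested on top of an EC20 dose of dopamine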
Target sequence (P14416 whole entry, looked up): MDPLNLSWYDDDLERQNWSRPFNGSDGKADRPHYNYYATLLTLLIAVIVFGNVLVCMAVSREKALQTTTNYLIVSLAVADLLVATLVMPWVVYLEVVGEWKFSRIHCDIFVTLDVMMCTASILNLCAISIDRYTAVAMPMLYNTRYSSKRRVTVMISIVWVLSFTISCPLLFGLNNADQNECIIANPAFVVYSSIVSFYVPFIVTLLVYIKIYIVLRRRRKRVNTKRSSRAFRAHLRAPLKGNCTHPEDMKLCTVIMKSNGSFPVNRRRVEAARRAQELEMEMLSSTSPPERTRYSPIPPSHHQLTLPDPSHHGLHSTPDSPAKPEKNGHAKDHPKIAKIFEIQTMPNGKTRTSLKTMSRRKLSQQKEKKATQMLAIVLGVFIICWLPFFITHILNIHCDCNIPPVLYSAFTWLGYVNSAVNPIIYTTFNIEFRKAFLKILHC
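D2 cells co-treated with compound plus 50 nM dopamine (EC20) for 90 min at 37 deg C to detect potentiation. Beta-arrestin recruitment was read as enzyme-fragment luminescence after 1 h at ambient temperature. Full response was set by 57 uM dopamine.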
TRPV1 potentiator – potentiators of human vanilloid receptor 1 (TRPV1); AID 540277; potentiation, % at 8.33 µM; actives 0.02% (n = 320,000); Q8NER1; TRPV1-expressing cells, Fluo-8 calcium influx, capsaicin EC20 potentiation; host cell line not named in the record; control for the full effect not named in the record; active means potentiation above 80%; inconclusive means 30% to 80%; inactive means below 30%; also: 0% is about no effect
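TRPV1-expressing cells were cultured overnight at 35.5C and loaded with Fluo-8 calcium dye for 40 to 90 min at room temperature. After a 10 s baseline, compound was added and calcium influx was read kinetically for 3 min (ex 480/em 520 nm).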
ClpP mod – qHTS Assay for Activators of ClpP; purified B. subtilis ClpP, FRET peptide cleavage, 20 min; Potency, µM (series often up to 57.5 µM), for inactives: top-dose activity change, negative = active; actives 1.9% (n = 340,000); AID 651965, 2013; active = well fitted falling curve with a large enough effect; inconclusive = small, poorly fitted or top-dose-only effect; inactive = no such curve, though single readings can be large or run the other way; also: potency is read from the fitted curve at half-maximal effect; the source files actives as falling curves though it sought activators and does not explain the sign; nearly all actives have a fitted effect of over 65% in size; many hits overshoot -100%
Target sequence (P80244 whole entry, looked up): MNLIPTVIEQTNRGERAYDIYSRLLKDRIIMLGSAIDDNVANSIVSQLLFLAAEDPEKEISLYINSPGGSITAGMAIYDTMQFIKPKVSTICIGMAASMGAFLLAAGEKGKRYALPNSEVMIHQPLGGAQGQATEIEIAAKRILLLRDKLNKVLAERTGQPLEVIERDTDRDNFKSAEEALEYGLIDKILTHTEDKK
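FRET quenching reversal measured ClpP activation: 10 microg/mL B. subtilis ClpP at pH 8 with the FRET-FV decapeptide, read at 430 nm after 320 nm excitation. The 20-min minus 0-min signal was scaled between DMSO/no-enzyme wells and ADEP (5.8 microM final).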
* marks the source's active call; other numbers are inactive results; ? = inconclusive; . = not tested or not shown; & = joins results of further samples; [ ] = another dose, or the depositor's remark.

no.	Structure	gsp agonist	gsp antag	Sfp inh	Menin MLL FP FL	D2 potentiator	TRPV1 potentiator	ClpP mod
1	O=C(N[C@@H](Cc1ccccc1)C(=O)OCc1ccccc1)c1nc[nH]c1C(=O)N1CCNCC1	?	5.1%	.	.	-9.3	.	2.3%
2	O=C1C2C(C(=O)N1/N=C/c1ccc([N+](=O)[O-])o1)C1C=CC2C12CC2 (stereo not given)	11.0%	-20.2%	20.8%	3.4	-10.0	-3.0	1.3%
3	CCCn1c(N)c(C(=O)CSc2ncc(C(F)(F)F)cc2Cl)c(=O)[nH]c1=O	-3.0%[15.4 µM]	-2.0%	16.6%	2.6	-1.2	5.9	.
4	C/C(=N/NS(=O)(=O)c1ccc(F)cc1)c1ccc(NC(=O)c2ccc(C)o2)cc1	-39.7%[inhibitor]	-17.8%	1.6%	2.3	-4.3	3.3	-0.6%
5	NNC(=O)c1ccc(COc2ccc3c(c2)CCC3)o1	6.5%	9.6%	12.6%	4.5	12.9	5.8	-4.0%
6	CCOCCn1c(SCc2c(F)cccc2Cl)nc2c1c(=O)[nH]c(=O)n2C	-19.5%	-1.6%	12.4%	3.6	-9.0	1.1	0.3%
7	COCCCNC(=O)CN(CCc1ccccc1)S(=O)(=O)c1ccccc1	-18.2%	12.4%	19.2%	-8.5	-4.1	0.5	.
8	O=C1Nc2ccc([N+](=O)[O-])cc2C1(O)N1CCCCCC1 (stereo not given)	-1.0%	-7.1%	3.2%	-0.6	-4.4	.	-2.1%
9	CCn1cc(/C=C(\NC(=O)c2ccccc2)C(=O)NCCCN2CCOCC2)c2ccccc21	-4.8%	-0.2%	-1.7%	.	-14.3	0.9	0.0%
10	COc1ccccc1-n1c([S-])c(C(=O)Nc2ccccc2C(F)(F)F)[n+]2ccc(C(=O)NCCO)cc12	-5.4%[15.4 µM]	.	7.0%	1.3	-1.5	24.3	.
11	CCC(C(=O)OC)n1cnc2c(nnn2-c2cccc(OC)c2)c1=O (stereo not given)	7.9%	-10.0%	2.2%	-0.3	-1.4	?	-2.2%
12	CCOC(=O)C1=C(C)Nc2nc(C)nn2C1c1ccc(OC)c(OC)c1 (stereo not given)	-77.8%	-1.0%	5.2%	1.9	-2.5	20.0	0.5%
13	Cc1ccc(-c2cc(C(F)F)n3ncc(C(=O)N4CCN5CCCC5C4)c3n2)cc1 (stereo not given)	-21.5%	12.5%	-5.9%	4.8	-40.5	-2.3	?
14	C=CCNC(=O)NC(=O)COC(=O)/C(C#N)=C/c1cc(C)n(CCC(C)C)c1C	?	0.2%	7.9%	6.3	-7.2	-15.5	-3.2%
15	O=[N+]([O-])c1ccc(COP(=O)(O)OCc2ccc([N+](=O)[O-])cc2)cc1	-10.2%	2.9%	.	.	-0.9&-9.7	.	1.7%&-2.3%
16	Cc1ccccc1-n1nc2c(c1NC(=O)c1cccc(F)c1)CS(=O)C2 (stereo not given)	-7.7%	-1.5%	5.5%	-1.5	1.2	6.7	-0.9%
17	C[C@H]1CN([C@@H](C)CO)S(=O)(=O)c2ccc(Br)cc2O[C@H]1CN(C)C(=O)Cc1ccccc1	-57.5%[inhibitor]	.	.	.	-1.7	.	1.9%
18	O=C(Nc1ccc(C(=O)O)cc1)/C(=C\c1ccccc1)NC(=O)c1ccccc1	-57.0%[inhibitor]	-6.1%	20.4%	4.6	-10.4	-10.0	1.3%
19	COc1ccc(C(CC(=O)N2CCCC2)C(C)C)cc1 (stereo not given)	17.0%	7.2%	4.8%	0.0	-4.2	8.7	-3.5%
20	COc1ccccc1Nc1nc(C)nc2c1oc1ccccc12	22.1%	-5.3%	-1.5%	5.5	-4.4	-30.6	.
21	Cc1sc(NC(=O)c2ccco2)c(C(c2cccnc2)N2CCC(C)CC2)c1C (stereo not given)	-1.7%	-19.0%	-16.8%	0.5	18.2	-6.2	-7.8%
22	Cc1cc(C)n(CCC(=O)N2CCc3ccccc32)n1	-6.7%	-0.8%	24.1%	5.5	-7.0	9.6	-1.6%
23	CC(=O)NC(Cc1cccc(F)c1)C(=O)NC1CCN(C(=O)c2ccc(C)cc2)CC1 (stereo not given)	-7.8%	0.9%	11.7%	-0.8	-6.0	-4.0	.
24	Cc1ccc(NC(=O)NCc2ccc3[nH]c(C)cc3c2)cc1	-17.8%	3.0%	14.1%	0.0	-49.6	-0.8	-3.2%
25	CCOCCn1c(N(C)Cc2ccccc2)nc2c1c(=O)[nH]c(=O)n2C	-19.5%	11.0%	1.7%	3.2	-1.6	20.0	-2.5%

Sorted by length of the SMILES (largest number first): some entries from above
no.	Structure	gsp agonist	gsp antag	Sfp inh	Menin MLL FP FL	D2 potentiator	TRPV1 potentiator	ClpP mod
9	CCn1cc(/C=C(\NC(=O)c2ccccc2)C(=O)NCCCN2CCOCC2)c2ccccc21	-4.8%	-0.2%	-1.7%	.	-14.3	0.9	0.0%
18	O=C(Nc1ccc(C(=O)O)cc1)/C(=C\c1ccccc1)NC(=O)c1ccccc1	-57.0%[inhibitor]	-6.1%	20.4%	4.6	-10.4	-10.0	1.3%
11	CCC(C(=O)OC)n1cnc2c(nnn2-c2cccc(OC)c2)c1=O (stereo not given)	7.9%	-10.0%	2.2%	-0.3	-1.4	?	-2.2%

(further entries)
no.	Structure	gsp agonist	gsp antag	Sfp inh	Menin MLL FP FL	D2 potentiator	TRPV1 potentiator	ClpP mod
26	O=C(CSCc1ccccc1)NC1CCSC1=O (stereo not given)	14.7%	0.0%	7.3%	3.0	-2.8	-3.9	-0.4%
27	CN[C@@H](CO)C(=O)NC[C@H]1O[C@@H](n2cc(C)c(=O)[nH]c2=O)C[C@@H]1O	-45.2%[inhibitor]	.	.	.	-3.8	.	-2.0%
28	CC(=O)OCC1=C(C(=O)O)N2C(=O)C(NC(=O)C(C)Cn3nc(C)c(Cl)c3C)C2SC1 (stereo not given)	6.9%	16.3%	-10.2%	0.8	-8.5	-3.5	0.5%
29	O=C(NCCO)c1ccc2[nH]c3c(c2c1)CCCC3	12.0%	?	-4.4%	-1.2	-7.5	21.0	-6.6%
30	O=C1Nc2cc(C(=O)N3CCc4ccccc4C3)ccc2S/C1=C\c1ccccc1	12.7%	-2.3%	-11.6%	1.8	10.9	8.7	-4.7%
31	COc1cccc(C2CC(c3ccccc3Cl)Nc3ncnn32)c1 (stereo not given)	?	5.1%	.	.	3.6	.	5.2%
32	CNC(=S)Nc1cccc(C(C)=O)c1	17.3%	19.6%	16.7%	0.6	-4.5	7.1	-1.3%
33	COc1ccc(NC(=O)N2CCCc3ccccc32)cc1OC	-27.1%	-0.2%	14.0%	-0.6	-1.0	0.3	1.6%
34	Cc1ccc(NC(=O)c2ccc(CN3CCc4ccccc4C3)cc2)cc1	7.4%[15.4 µM]	-12.0%	15.3%	2.0	-40.7	-0.9	0.7%
35	O=C(Nc1ccc(S(=O)(=O)Nc2ncccn2)cc1)C1=COCCO1	7.9%	12.5%	.	.	-0.9	0.2	?
36	O=C(N/N=C/c1ccco1)C1CC1c1ccccc1 (stereo not given)	1.2%[15.4 µM]	4.1%	-1.9%	2.8	-5.2	?	-1.5%
37	C=CCn1cc(/C=C/c2cc[n+](C)cc2)c2ccccc21	-2.9%	?	-11.1%	?	-5.1	5.1	-0.5%
38	C[C@H](CO)N1C[C@H](C)[C@@H](CN(C)S(=O)(=O)c2cccs2)OCc2cnnn2CCCC1=O	?	.	.	.	-7.2	.	-1.4%
39	CCC(C)(C)NS(=O)(=O)c1cc(CN2C(=O)c3cccnc3C2=O)ccc1OC	?	-11.8%	5.2%	2.2	-10.0	-2.0	-2.5%
40	Oc1[nH]c2ccccc2c1N=Nc1ccccc1F	-29.8%	1.6%	16.6%	?	-21.8	-13.5	-0.3%
41	C=CCN(C(=O)c1csnn1)C(C(=O)NCc1ccccc1)c1c(F)cccc1Cl (stereo not given)	4.6%	-8.4%	11.0%	-5.2	-6.3	-7.9	.
42	CN(C)S(=O)(=O)c1cccc(NC(=S)NC(=O)c2ccco2)c1	-2.4%[15.4 µM]	-11.9%	.	.	-11.0	10.4	-0.1%
43	CC(=O)N1CC(C)Oc2ccc(S(=O)(=O)NC(CC(=O)O)c3cc(C)ccc3C)cc21 (stereo not given)	10.8%	3.4%	26.3%	3.2	-24.9	9.3	-0.2%
44	Cc1ccc2c(CN(C)Cc3cccc(Cl)c3)cc(=O)oc2c1C	-7.2%[15.4 µM]	-8.5%	-13.5%	-11.4	-7.6	-6.7	1.3%
45	CCC1CCCCN1C(=O)CCS(=O)(=O)c1ccccc1 (stereo not given)	1.1%	13.1%	12.9%	.	-5.8	-0.9	-0.7%
46	CCc1cc2c(=O)n(Cc3ccco3)c(SCC(=O)NCC3CCCO3)nc2s1 (stereo not given)	2.2%[15.4 µM]	-16.1%	-9.3%	0.0	-8.1	-9.3	2.7%
47	O=C(Nc1cc(S(=O)(=O)N2CCOCC2)ccc1Cl)C(=O)c1c(-c2ccccc2)cc2ccccn12	-7.5%	-2.5%	8.7%	0.7	-8.2	-10.3	3.1%
48	COc1ccccc1NC(=O)COC(=O)CCn1c(C)csc1=O	14.1%[15.4 µM]	-6.2%	.	.	-3.2	-5.7	.
49	CN(CC(=O)Nc1cccc(F)c1)C(=O)c1ccc(N2C(=O)c3ccccc3C2=O)cc1	-45.8%[inhibitor]	10.7%	.	.	-9.8	7.7	4.7%

Limited to gsp antag and D2 potentiator, for some of the entries so far:
| No. | mol | gsp antag | D2 potentiator |
| --- | --- | --- | --- |
| 15 | O=[N+]([O-])c1ccc(COP(=O)(O)OCc2ccc([N+](=O)[O-])cc2)cc1 | 2.9% | -0.9&-9.7 |
| 16 | Cc1ccccc1-n1nc2c(c1NC(=O)c1cccc(F)c1)CS(=O)C2 (stereo not given) | -1.5% | 1.2 |
| 17 | C[C@H]1CN([C@@H](C)CO)S(=O)(=O)c2ccc(Br)cc2O[C@H]1CN(C)C(=O)Cc1ccccc1 | . | -1.7 |
| 18 | O=C(Nc1ccc(C(=O)O)cc1)/C(=C\c1ccccc1)NC(=O)c1ccccc1 | -6.1% | -10.4 |
